ClpP mod = qHTS Assay for Activators of ClpP; purified B. subtilis ClpP, FRET peptide cleavage, 20 min; ATP-dependent Clp protease proteolytic subunit (Bacillus subtilis (strain 168)), P80244; Potency, µM (doses to about 57.5 µM), for the others: at the top dose activity change, negative = active; AID 651965, 2013; 1.9% of 340,000 active; active = well fitted falling curve with a large enough effect; inconclusive = small, poorly fitted or top-dose-only effect; inactive = no such curve, though single readings can be large or run the other way; note: potency is the fitted concentration of half-maximal effect; the source files actives as falling curves though it sought activators and does not explain the sign; nearly all actives have a fitted effect of over 65% in size; many hits overshoot -100%
Target sequence (P80244 whole entry, looked up): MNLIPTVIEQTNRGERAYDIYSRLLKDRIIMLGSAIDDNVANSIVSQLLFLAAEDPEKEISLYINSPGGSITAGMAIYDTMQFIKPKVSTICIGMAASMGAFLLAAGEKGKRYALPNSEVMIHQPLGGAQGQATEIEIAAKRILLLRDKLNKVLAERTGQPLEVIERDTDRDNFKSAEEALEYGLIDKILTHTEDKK
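FRET quenching reversal measured ClpP activation: 10 microg/mL B. subtilis ClpP at pH 8 with the FRET-FV decapeptide, read at 430 nm after 320 nm excitation. The 20-min minus 0-min signal was scaled between DMSO/no-enzyme wells and ADEP (5.8 microM final).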
TRPML1 agonist = qHTS for Agonists of the Human Mucolipin Transient Receptor Potential 1 (TRPML1) | activation, % (no concentration beside the values) | Mucolipin-1 (Homo sapiens), Q9GZU1 | AID 624414, 2012 | 0.12% of 410,000 active | TRPML1-expressing cells, Ca2+ dye fluorescence, FDSS; host cell line not named in the record; reference of the full effect not given here; in the data active = activation above about 50%; inconclusive = about 30% to 50%; inactive = below about 30%; note: 0% is about no effect; the text of the record puts the active cut at 80%
Target sequence (Q9GZU1 whole entry, looked up): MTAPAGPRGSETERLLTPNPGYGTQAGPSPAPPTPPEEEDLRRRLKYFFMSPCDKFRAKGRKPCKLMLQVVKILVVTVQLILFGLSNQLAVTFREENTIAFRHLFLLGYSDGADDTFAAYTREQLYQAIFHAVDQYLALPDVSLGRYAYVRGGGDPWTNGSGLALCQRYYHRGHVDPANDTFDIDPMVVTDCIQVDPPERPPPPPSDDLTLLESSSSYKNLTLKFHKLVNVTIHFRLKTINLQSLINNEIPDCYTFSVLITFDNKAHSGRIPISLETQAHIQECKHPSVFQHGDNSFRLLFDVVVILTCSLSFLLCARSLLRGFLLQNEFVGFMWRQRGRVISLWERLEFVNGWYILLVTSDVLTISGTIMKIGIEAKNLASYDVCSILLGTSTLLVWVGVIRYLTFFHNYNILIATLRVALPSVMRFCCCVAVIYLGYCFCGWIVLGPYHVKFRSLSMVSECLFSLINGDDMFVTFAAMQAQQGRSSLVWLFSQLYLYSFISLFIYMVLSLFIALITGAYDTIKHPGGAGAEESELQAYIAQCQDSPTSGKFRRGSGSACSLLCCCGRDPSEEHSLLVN
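Agonist activity was taken from a 110 s kinetic Ca2+ dye read on the FDSS after pinning compounds onto TRPML1-DL cells. The cells were seeded at 1,500/well with Tet inducer, incubated about 16 h, then dye-loaded at room temperature.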
gsp antagonist = qHTS for Antagonists of gsp, the Etiologic Mutation Responsible for Fibrous Dysplasia/McCune-Albright Syndrome: qHTS; Potency, µM (series often up to 76.9 µM), for the others: top-dose activity change, negative = inhibition, actives largely listed as inhibitors; 0.4% of 340,000 active; gsp-mutant cells, cAMP HTRF, 30 min; control for the full effect not named in the record; active = falling curve of any shape with a large fitted effect; inconclusive = falling curve, mostly with a smaller effect; inactive = flat or rising curve; cell line not stated here;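 note: intracellular cAMP measured with PDE inhibitor Ro 20-1724 present during compound exposure; potency is the fitted concentration of half-maximal effect; % is set by controls: 0 for no effect and ±100 for the full control effect; nearly all actives have a fitted effect of over 65% in size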
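G418-selected cells were plated in DMEM/10% FBS for 16-24 h at 37C, then treated with compounds plus the PDE inhibitor […] (300 uM solution added) for 30 min at 37C. Intracellular cAMP was measured by HTRF after 30 min lysis at room temperature.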
Menin-MLL FL inh = qHTS Assay for Inhibitors Targeting the Menin-MLL Interaction in MLL Related Leukemias: Competition With Fluorescein Labeled MLL-derived Peptide | FP activity change, % at 61.4 µM | AID 1766, 2009 | Fluorescence polarization, fluorescein-MLL peptide displacement from menin | 290,000 tested, under 10 active; inconclusive = falling polarisation curve, or a change in total fluorescence; inactive = total fluorescence flat and polarisation flat or rising; no compound was filed as active; the % refers to the polarisation; negative = inhibition;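 note: % of control where 0% means no effect; inhibitors lower the polarisation; unlabelled MLL peptide was the positive control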
TRPML1 blocker = qHTS for Inhibitors of the Human Mucolipin Transient Receptor Potential 1 (TRPML1) | AID 624415, 2012 | Mucolipin-1 (Homo sapiens), Q9GZU1 | activity change, negative = inhibition, % (test concentration not listed) | 0.02% of 390,000 active | TRPML1-inducible cells, Ca2+ dye fluorescence, FDSS; active compounds read low; inhibition of EC80 agonist-evoked calcium signal; in the data active means activity change below about -50%; inconclusive means about -30% to -50%; inactive means above about -30%;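 note: stimulus is agonist 54-4 at its EC80 concentration; % is set by controls: 0 for no effect and ±100 for the full control effect; compound concentration not given in the record; the text of the record puts the active cut at -80%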
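Calcium fluorescence in TRPML1-DL cells induced overnight with Tet: a 110 s read after compound pin addition, then a 110 s antagonist read after challenge with 54-4 at 4 uM final (EC80).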
gsp ag = qHTS for Agonist of gsp, the Etiologic Mutation Responsible for Fibrous Dysplasia/McCune-Albright Syndrome: qHTS; gsp mutant cells, cAMP HTRF, 30 min; control for the full effect not named in the record; Potency, µM (highest dose often 76.9 µM), without a hit: at the top dose activation (cAMP increase), actives largely listed as activators; 0.13% of 340,000 active; active = well fitted activation curve with a large enough effect; inconclusive = small, poorly fitted or top-dose-only effect, or another doubt; inactive = no such curve, though single readings can be large or run the other way; cell line not stated here;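 note: phosphodiesterase inhibitor Ro 20-1724 added with compounds to block cAMP breakdown; potency is the fitted concentration of half-maximal effect; nearly all actives have a fitted effect of over 60% in size; about a fifth of the inactives were tested at one dose only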
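Cells stably selected in G418 were plated at 2000/well, grown 16-24 hr, then given compounds in DMSO with the PDE inhibitor […] (300 uM solution added) for 30 min at 37C; cAMP was read by HTRF.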
* = called active by the depositor; ? = inconclusive; . = no result given; [ ] = another dose, or the depositor's remark.

compound | ClpP mod | TRPML1 agonist | gsp antagonist | Menin-MLL FL inh | TRPML1 blocker | gsp ag
O=[N+]([O-])c1cc(N=Nc2ccc3ccccc3c2)ccc1O | 0.5% | . | -16% | 2.4 | . | 2%
CCOC(=O)c1c(C)[nH]c(C)c1C(=O)CSc1nc(N)cc(=O)[nH]1 | -1.7% | 1.1 | 6% | 3.9 | -9 | -7%
O=C(NC1CC1)C1=C[C@@H](c2coc3ccccc3c2=O)C[C@@H](OCCCCO)O1 | 19% | 0.6 | 2% | 8.0 | -12 | .
COc1ccc(-c2csc3ncnc(NCCN4CCOCC4)c23)cc1 | -1.2% | -0.4 | -12% | -0.9 | 12 | ?
O=C(O)CS(=O)CC(=O)Nc1cccc(C(F)(F)F)c1 (stereo unspecified) | . | 0.2 | 1% | 0.2 | 43 | 1%
COc1ccc(C(=O)C[n+]2ccccc2/C=N/O)cc1 | . | 0.7 | 6% | -1.3 | -10 | 18%
CCOc1ccc(/C=C/c2c([N+](=O)[O-])c(=O)n(C)c(=O)n2C)cc1 | . | 0.0 | -6% | -1.4 | 6 | -3%
Cc1cc(Cn2ccnc2)c(C)cc1Cn1ccnc1 | -1.4% | -0.4 | 7% | 5.7 | 2 | -71%[inhibitor]
COc1ccc(Cl)c(NC(=O)NCCN2CCN(c3ccccc3)CC2)c1 | -2.9% | 0.0 | 3% | 0.0 | 5 | -3%
CSc1ncc2c(n1)-c1ccccc1N(Cc1ccccc1C)S2(=O)=O | -4.2% | 0.9 | . | . | -6 | .
CC1(C)CC(=O)C=C(Nc2ccc(C(=O)O)c(O)c2)C1 | . | 0.0 | 1% | 1.9 | -16 | 16%
COc1ccc(CNc2ccc([N+](=O)[O-])cc2C)cc1 | . | 2.1 | 17% | -0.3 | 19 | 12%[15.4 µM]
COCc1cc(=O)[nH]c(/N=C(\N)Nc2c(F)cccc2F)n1 | . | 0.5 | 2% | -0.5 | -7 | 3%[15.4 µM]
Fc1ccccc1CSc1nc2ncc(Br)cc2[nH]1 | 1.1% | 1.9 | 1% | -0.7 | -2 | 0%
COc1ccccc1CN1C[C@@H]2C[C@@H](c3ccccc3OC)N3CCC[C@@]23C1=O | 0.3% | 0.0 | -7% | 16 | -1 | 2%
O=C(O)CCCC(=O)Nc1ccc(-n2ccc(C(F)(F)F)n2)cc1 | 0.7% | -0.5 | 5% | 2.6 | 10 | ?
CCCNC(=O)C1CCN(c2cc(C)nc3c(-c4ccc(OC)c(OC)c4)c(C)nn23)CC1 | 1.7% | -0.9 | . | . | -4 | .
O=c1c(S(=O)(=O)c2ccccc2)cn(Cc2ccc(F)cc2)c2cc(N3CCCC3)c(F)cc12 | -27% | 3.6 | . | . | -20 | .
COc1ccc(-c2nnc(SC(C)C(=O)Nc3cccc(Cl)c3)o2)cc1 (stereo unspecified) | 0.4% | 4.3 | -22% | 1.5 | 26 | 19%
O=C(NCc1cccnc1)c1cc(-c2ccc(Cl)cc2)oc1C(F)(F)F | -8.2% | 0.4 | 1% | 8.9 | -9 | -22%
Cn1cccc1C(=O)NNC(=O)COc1ccccc1F | -1.2% | 0.6 | -1% | -3.1 | 33 | 27%
Cc1ccc(S(=O)(=O)NCCC(=O)N2CC(C)OC(C)C2)cc1 (stereo unspecified) | 0.8% | -0.4 | 13% | . | 0 | 2%[15.4 µM]
Brc1ccc(/C=N/Nc2ncnc3c2cnn3Cc2ccccc2)cc1 | -5.2% | 0.2 | -4% | 1.8 | 36 | -4%
CCC(Oc1ccccc1)C(=O)Nc1ccc(S(=O)(=O)Nc2cnc3ccccc3n2)cc1 (stereo unspecified) | -15% | -1.0 | -18% | 1.2 | 0 | -9%
Cc1ccc(C(=O)NCCSc2c(C)[nH]c3ccccc23)cc1C | -0.7% | 2.2 | . | . | 0 | .

Profiles, quoted from the list.
`CCC(Oc1ccccc1)C(=O)Nc1ccc(S(=O)(=O)Nc2cnc3ccccc3n2)cc1` (stereo unspecified) reads ClpP mod: -15%; TRPML1 agonist: -1.0; gsp antagonist: -18%; Menin-MLL FL inh: 1.2; TRPML1 blocker: 0; gsp ag: -9%
`Cn1cccc1C(=O)NNC(=O)COc1ccccc1F` reads ClpP mod: -1.2%; TRPML1 agonist: 0.6; gsp antagonist: -1%; Menin-MLL FL inh: -3.1; TRPML1 blocker: 33; gsp ag: 27%

Later entries:
compound | ClpP mod | TRPML1 agonist | gsp antagonist | Menin-MLL FL inh | TRPML1 blocker | gsp ag
CCCc1cnc2c(c1SCc1cccc(C)c1)c(=O)n(C)c(=O)n2C | -0.8% | 0.9 | . | . | 7 | .
CCCS(=O)(=O)N1CCCC(C(=O)N2CCCCC2)C1 (stereo unspecified) | . | -0.6 | 5% | 5.5 | -18 | -3%
CC(C)=CCC/C(C)=C/CNC(=O)C[C@H]1C[C@H](C(=O)N2CCOCC2)[C@@]2(CCC3CCCC3)c3[nH]c4cc(CCC(=O)N(C)C)ccc4c3CCN2C1=O | -0.8% | -1.0 | -13% | . | -1 | .
COC(=O)C1C(=O)C2=C(CC1C)NC(=O)CC2c1cccc(C)c1 (stereo unspecified) | -1.2% | -1.1 | 1% | 2.4 | -12 | 3%
CCN1CNC(=S)N(c2cccc(C)c2)C1 | 0.2% | -0.3 | 13% | -1.0 | 1 | -2%[15.4 µM]
COc1ccc(C(O)Cn2cc([N+](=O)[O-])nc2C)cc1 (stereo unspecified) | . | 0.6 | 10% | 1.8 | -8 | 17%[15.4 µM]
CCCCCCCCCCCCS(=O)(=O)CCC(=O)O | . | 0.4 | -2% | 5.4 | 11 | -6%[15.4 µM]
Nc1nonc1-n1nnc(C(=O)N/N=C/c2cc(Br)cs2)c1-c1ccccc1 | . | 0.5 | -30% | 2.8 | 5 | ?
CC1(C)CC(=O)c2cc(C(=O)Nc3ccccc3Cl)c(=O)n(-c3ccc(Cl)cc3)c2C1 | 0.0% | 0.3 | . | . | -13 | .
CCSC1=C(C#N)C(c2ccc(C)s2)CC(=O)N1 (stereo unspecified) | 0.1% | 2.9 | 13% | 2.2 | 1 | 2%
Cc1ccc(C2=NN(C(=O)CCl)C(c3cccs3)C2)o1 (stereo unspecified) | -0.8% | -0.7 | -1% | 6.4 | -10 | -4%[15.4 µM]
OCCN(Cc1ccccc1)Cc1ccccc1O | . | 2.4 | 3% | 0.9 | 13 | ?
CC(C(=O)Nc1cccc([N+](=O)[O-])c1)N1C(=O)NC2(CCCC2)C1=O (stereo unspecified) | . | 0.3 | 2% | -25 | 8 | -12%[15.4 µM]
Cc1ccc(C)c(NC(=O)CCC(=O)NNC(=S)Nc2ccccc2)c1 | . | 0.9 | 8% | 1.3 | -2 | 2%[15.4 µM]
COc1cc(S(=O)(=O)N(Cc2cccs2)CC2CCCO2)ccc1-n1cnnn1 (stereo unspecified) | -1.1% | 0.3 | -3% | 0.5 | 20 | -23%
CSc1nsc(SCC(=O)Nc2ccccc2C(=O)O)n1 | . | 0.5 | -26% | . | 7 | 2%[15.4 µM]
O=C1CCCN1S(=O)(=O)c1ccc(F)cc1 | 1.4% | . | 6% | 2.4 | . | -33%[inhibitor]
c1ccc2nc3c(nc2c1)CCc1nonc1-3 | -0.5% | 4.4 | 10% | 0.9 | 20 | ?
CCOc1c(Cl)cc(CNCC(C)C)cc1OC | 2.6% | -0.2 | 1% | -2.8 | 16 | ?
C=C(C)C(=O)Nc1cccc(C2=NOC3(C2)C[C@@H](C(N)=O)N(C(=O)C2(C)CC2)C3)c1 (stereo partly specified) | 0.4% | -0.5 | -6% | -0.7 | 0 | 32%
O/N=C/Cc1[nH]c2ccccc2c1-c1ccccc1 | -1.6% | 1.2 | -16% | -9.1 | -6 | -6%
COCCNc1nc(-c2cc(-c3ccc(Cl)cc3)on2)cc(C(C)C)n1 | ? | 1.8 | -4% | -8.5 | -8 | .
CCc1ccc(S(=O)(=O)Nc2cccc(-c3ccc4nncn4n3)c2)s1 | . | -0.1 | -5% | -2.2 | 27 | 28%
Cc1nnc2sc(-c3ccc(-c4ccc(Cl)c(C(F)(F)F)c4)o3)nn12 | 5.3% | 1.0 | -5% | 1.6 | 16 | -29%
CC(C)(C)c1cc(NC(=O)c2cccs2)no1 | 2.1% | 1.3 | -1% | . | -17 | 29%
c1ccc(CCc2nc(-c3ccccc3)no2)cc1 | -1.7% | 1.4 | -2% | -1.3 | 2 | 24%
CCN(Cc1ccncc1)Cc1cn(C)nc1-c1ccc(Oc2ccccc2)cc1 | -4.7% | 1.1 | -14% | 2.1 | -2 | 17%
COc1ccc(C)cc1NC(=O)c1ccc(S(=O)(=O)N2CCCCC2)cc1 | . | 2.9 | -13% | -3.3 | 22 | 1%
Fc1ccc(-c2nc3cnccn3c2NC2CCCC2)cc1 | -20% | 3.5 | -8% | 3.6 | 39 | ?
COc1ccc(-c2noc(CCC(=O)NCc3cccnc3)n2)cc1 | -0.8% | -0.4 | 12% | 1.8 | -7 | -16%
COc1ccc(C(=O)Nc2nnc(CCc3ccccc3)s2)c(OC)c1 | -6.5% | 0.4 | -12% | -10 | 0 | -18%
Cn1c2c(c(=O)n(C)c1=O)[C@@]1(C(=O)Nc3ccccc31)C(C#N)=C(N)O2 | . | 3.8 | -2% | 7.0 | 26 | -3%[15.4 µM]
Cc1ccc(-c2ccnc3[nH]n(-c4ccccc4)c(=O)c23)cc1 | 0.5% | -0.4 | 6% | -0.2 | -17 | 11%
CCOC(=O)c1c(-c2ccc(OC)cc2)csc1NC(=O)CCN1C(=O)c2ccccc2C1=O | -3.9% | 0.8 | -9% | 7.8 | -10 | -39%[inhibitor]
CCN(CC)c1ccc(CNC23CN4CN(CN(C4)C2)C3)cc1 | -7.0% | 0.3 | -4% | -0.4 | -21 | -1%
COc1cc(NC2c3ccccc3C(=O)N2Cc2ccccc2Cl)cc(OC)c1 (stereo unspecified) | -3.5% | 1.8 | -11% | -0.2 | 32 | 2%
CCn1cc(C(=O)OCC(=O)Nc2cc(OC)cc(OC)c2)c(=O)c2ccc(C)nc21 | 4.7% | 0.0 | . | . | -12 | .

Bioassay records from PubChem BioAssay.
